GCN5L2 inh: inhibitors of human GCN5L2 histone acetyltransferase | Potency, µM (doses to about 58.9 µM), for the others: at the highest dose activity change, negative = inhibition, actives largely listed as inhibitors | 390,000 compounds, 0.21% hits | GCN5L2 HAT assay, ThioGlo1 CoA-SH fluorescence; active = well fitted inhibition curve with a large enough effect; inconclusive = small, poorly fitted or top-dose-only effect, or another doubt; inactive = no such curve, though single readings can be large or run the other way
Target sequence (Q92830 whole entry, looked up): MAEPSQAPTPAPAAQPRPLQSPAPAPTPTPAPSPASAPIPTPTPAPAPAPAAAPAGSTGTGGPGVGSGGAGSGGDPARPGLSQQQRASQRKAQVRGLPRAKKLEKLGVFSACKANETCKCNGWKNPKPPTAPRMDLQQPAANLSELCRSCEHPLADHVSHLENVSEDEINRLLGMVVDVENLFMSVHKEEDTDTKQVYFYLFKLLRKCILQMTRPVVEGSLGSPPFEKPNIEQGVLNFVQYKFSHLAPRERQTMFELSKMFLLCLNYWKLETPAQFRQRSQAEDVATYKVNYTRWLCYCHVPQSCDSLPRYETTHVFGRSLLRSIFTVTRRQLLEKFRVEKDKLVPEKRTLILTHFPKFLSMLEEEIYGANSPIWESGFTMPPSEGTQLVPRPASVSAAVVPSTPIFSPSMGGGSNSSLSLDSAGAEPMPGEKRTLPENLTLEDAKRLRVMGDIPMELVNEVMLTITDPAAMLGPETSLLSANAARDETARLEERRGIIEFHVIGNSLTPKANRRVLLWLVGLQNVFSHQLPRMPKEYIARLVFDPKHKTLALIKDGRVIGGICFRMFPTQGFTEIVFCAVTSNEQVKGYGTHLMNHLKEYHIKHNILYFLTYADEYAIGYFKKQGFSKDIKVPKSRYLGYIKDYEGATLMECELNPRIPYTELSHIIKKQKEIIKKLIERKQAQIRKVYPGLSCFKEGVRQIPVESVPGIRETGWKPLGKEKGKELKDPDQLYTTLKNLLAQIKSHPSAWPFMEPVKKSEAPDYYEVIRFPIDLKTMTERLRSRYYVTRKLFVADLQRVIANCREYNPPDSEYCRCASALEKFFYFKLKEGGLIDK
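GCN5L2 (20nM final) in 50mM HEPES, 0.1mM EDTA pH 7.5, 0.01% Tween-20 was preincubated 15 min at room temperature with compound, then given ThioGlo1 (50uM), H3(1-25) peptide (75uM) and acetyl-CoA (70uM); CoA-thiol fluorescence (Ex340/Em540) was read at 0 and 20 min.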
* hit, by the source's call; ? = inconclusive; & = joins results of further samples; [ ] = remark or other dose. % is set by controls: 0 for no effect and ±100 for the full control effect; potency is the fitted concentration of half-maximal effect.

SMILES	GCN5L2 inh
Cc1nc(NC(=O)/C=C/c2ccccc2)sc1C(=O)Nc1ccccc1	-7.6%
Cn1cccc1CC(=O)N/N=C\c1ccccc1	-0.8%
CC(C)(C)c1ccc(C(=O)N2CCCC2)s1	0.3%
CN(Cc1ccccn1)C(=O)C1CCC(=O)N(Cc2cccc(F)c2)C1 (centres undefined)	-18.5%
COc1ccc2nc(SCC(=O)Nc3ccc(S(=O)(=O)Nc4onc(C)c4C)cc3)[nH]c2c1	1.2%
O=C(NC1CCCCCCC1)c1ccc(F)c(S(=O)(=O)N2CCOCC2)c1	1.4%
Cc1nnc2n(C3CCCCC3)c(=O)c3c4c(sc3n12)COC(C)(C)C4	-2.1%
COc1ccc2cc(C(=O)N3CCCC(Nc4ccc(F)cc4)C3)n(C)c2c1 (centres undefined)	-29.8%
CCOc1ccc(Nc2ccc(S(=O)(=O)N3CCN(C)CC3)cc2[N+](=O)[O-])cc1OCC	0.1%
CCOC(=O)c1cc(C(=O)c2cc(F)ccc2O)coc1=N	2.5%

Structural class, those above with an aryl methoxy group.
SMILES	GCN5L2 inh
COc1ccc2nc(SCC(=O)Nc3ccc(S(=O)(=O)Nc4onc(C)c4C)cc3)[nH]c2c1	1.2%
COc1ccc2cc(C(=O)N3CCCC(Nc4ccc(F)cc4)C3)n(C)c2c1 (centres undefined)	-29.8%

(next part)
SMILES	GCN5L2 inh
O=C(Cn1ccc([N+](=O)[O-])n1)NCC1CCCO1 (centres undefined)	-1.5%
Cn1c(SCC(=O)Nc2nccs2)nnc1C1CC1	0.6%
CC(=O)NCCOc1cccc2cccnc12	-5.3%
CCN(Cc1ccccc1)C(=O)c1cc2c(=O)oc3ccc(C)cc3c2s1	-10.6%&-8.1%
CN1CCSc2ccc(C(=O)NCc3ccccc3)cc21	-8.3%&-19.1%
O=C1C(Nc2ccccc2)=C2CCCC=C2N1c1ccccc1	4.5%
COc1ccc2nc(NC(=O)C(NS(=O)(=O)c3cccs3)C(C)C)sc2c1 (centres undefined)	-1.9%
CCOc1cc(C(C(=O)NCC2CCCO2)N(C(=O)Cn2nnc3ccccc32)c2ccc(OC)c(OC)c2)ccc1O (centres undefined)	0.9%
CCOC(=O)NC(=O)CSc1ccc(C)cc1C	-14.1%
CC1CCc2c(sc(NC(=O)COc3ccccc3C(C)(C)C)c2C#N)C1 (centres undefined)	3.3%
CC(=O)Nc1cccc(NC(=O)CS(=O)(=O)c2cn(CC(=O)N3CCOCC3)c3ccccc23)c1	1.6%
CC(C)(C)NC[C@H](O)c1cc(O)cc(O)c1	8.8%[21.4 µM]
Cc1cc(=O)oc(C)c1C(=O)N1CCc2c([nH]c3ccccc23)C1C(C)C (centres undefined)	-5.3%
Cc1ccc(NC(=O)Cn2c(=O)n(Cc3ccco3)c(=O)c3ccccc32)cc1	-5.3%
CC(CC(=O)N1CCc2ccccc21)n1cccn1 (centres undefined)	1.0%
CCC(C)NC(=O)C1CCCN1S(=O)(=O)c1ccc(Cl)cc1 (centres undefined)	-4.5%
Cc1ccnc(NC(=O)CNC(=O)c2sc3ccccc3c2Cl)c1	2.3%
O=C(Nc1nnc(-c2ccc(F)cc2)o1)C1CCCN1S(=O)(=O)c1cccs1 (centres undefined)	1.7%
O=C(O)c1ccc(-c2ccco2)n1Cc1ccccc1	-7.2%[0.501 µM]
Clc1ncn(CCOc2ccccc2)c1Cl	-3.0%
C=CC[C@@H](CC(=O)NCCO)C(=O)N[C@@H](COC(=O)[C@@H](CC=C)CC(=O)OC(C)(C)C)Cc1c[nH]c2ccccc12	-2.8%
CCc1ccc(C(=O)COC(=O)c2cc([N+](=O)[O-])ccc2NCCO)cc1	-9.1%
CCOc1ccc(NS(=O)(=O)c2cc(NC(=O)CCS(=O)(=O)c3ccc(C)cc3)ccc2OC)cc1	-2.1%
COc1ccc(CN2CCN(C(=O)C3CCN(S(=O)(=O)c4cccs4)CC3)CC2)c(OC)c1OC	-2.9%
Cc1ccc(-c2nn(-c3ccccc3)cc2/C=C/C(=O)Nc2cccc(S(N)(=O)=O)c2)cc1	-9.7%
COc1ccc(-c2cc(C(=O)N3CCN(c4ccccn4)CC3)c3ccccc3n2)cc1	-21.0%
Cc1cc(/C=C2/NC(=S)NC2=O)c(C)n1-c1cccnc1	1.8%
O=C(CCNC(=O)c1ccccc1)N/N=C/c1ccc([N+](=O)[O-])cc1	0.8%
CC1CCN(C(=O)c2ccc(CNS(=O)(=O)c3ccc(C(C)(C)C)cc3)cc2)CC1	-11.7%
O=C(CN1C(=O)COc2ccc(S(=O)(=O)NC3CCCC3)cc21)Nc1ccc(Cl)cc1	-8.8%

A stretch of the results above:
SMILES	GCN5L2 inh
Cc1ccc(-c2nn(-c3ccccc3)cc2/C=C/C(=O)Nc2cccc(S(N)(=O)=O)c2)cc1	-9.7%
COc1ccc(-c2cc(C(=O)N3CCN(c4ccccn4)CC3)c3ccccc3n2)cc1	-21.0%
Cc1cc(/C=C2/NC(=S)NC2=O)c(C)n1-c1cccnc1	1.8%
O=C(CCNC(=O)c1ccccc1)N/N=C/c1ccc([N+](=O)[O-])cc1	0.8%
CC1CCN(C(=O)c2ccc(CNS(=O)(=O)c3ccc(C(C)(C)C)cc3)cc2)CC1	-11.7%
O=C(CN1C(=O)COc2ccc(S(=O)(=O)NC3CCCC3)cc21)Nc1ccc(Cl)cc1	-8.8%

Remaining list, next part:
SMILES	GCN5L2 inh
CCOC(=O)Cn1nnnc1CN(Cc1ccc(OC)cc1)Cc1cc2cc(C)ccc2[nH]c1=O	-9.3%
O=C(NCc1ccc(F)cc1)c1ccc(CS(=O)Cc2ccc(Cl)cc2)o1 (centres undefined)	-2.4%
Cc1cc2cc(CNC(=S)Nc3ccc(OC(F)(F)F)cc3)ccc2[nH]1	-6.5%
Cc1[nH]c2ccccc2c1C(=O)CSc1nc2ccccc2c(=O)n1CCCN1CCOCC1	-6.5%
Cc1c(C(=O)NCc2ccccc2Cl)sc2nc3n(c(=O)c12)CCC3	-5.4%
Cc1ccc(C2C(C(=O)c3ccco3)=C(O)C(=O)N2c2ncccn2)cc1 (centres undefined)	1.1%
Nc1cc(-c2ccccc2)nn1S(=O)(=O)c1ccc(Br)cc1	-19.4%
COc1ccc(S(=O)(=O)N2CCCC2CNC(=O)C(=O)NCc2ccco2)cc1 (centres undefined)	-1.7%
Cc1ccc(OCCSc2nc3ccc(NC(=O)c4ccc5c(c4)OCO5)cc3s2)cc1	0.8%
Cc1noc(C)c1COC(=O)c1cccc(N(C)C)c1	-20.7%
COc1ccc(Br)cc1C(=O)CCC(=O)OCC(=O)Nc1cc(C(N)=O)cc(C(N)=O)c1	0.2%
CC1(C)CNc2cc([N+](=O)[O-])ccc2S1	-6.6%
CCOC(=O)N1CCC(Nc2ncnc3c2cnn3-c2ccc(Cl)cc2)CC1	0.4%
CCN(CC)CCCNC(=O)C(C)Sc1nc(-c2ccccc2)cc(C(F)(F)F)n1 (centres undefined)	1.6%
CC(NS(=O)(=O)c1ccc(CCC(=O)N2CCN(C)CC2)cc1)c1ccccc1 (centres undefined)	-1.4%
COc1ccccc1NC(=O)Nc1nnc(CC(=O)Nc2cccc(C)c2)s1	1.5%
C=CCOc1ccc(C2C(C#N)=C(N)N(Nc3ccccc3)C3=C2C(=O)CC(C)(C)C3)cc1OC (centres undefined)	-15.6%
Cc1ccccc1NC(=O)Cc1nc(COC(=O)COc2ccc(C(C)(C)C)cc2)cs1	-12.2%
O=c1[nH]c(=O)n(C2CC(O)C(CO)O2)cc1C(F)(F)F (centres undefined)	5.0%
CC1CCc2c(sc3nc(CN4CCOCC4)nc(N4CCc5ccccc5C4)c23)C1 (centres undefined)	2.7%
Cc1ccc(C(=O)Nc2ccccc2N2CCCC2)s1	-6.5%
CCOC(CNC(=O)C(=O)Nc1cc2c3c(c1)CCC(=O)N3CCC2)OCC	2.9%
CC1=NN(c2ccccc2)C(=O)C1C(=O)c1ccccc1 (centres undefined)	-0.8%
COc1ccccc1NC(=O)C1=C(C)NC(SCC(=O)c2ccccc2)=C(C#N)C1c1ccco1 (centres undefined)	-4.8%
Cc1cc(N2CCN(c3cccc(C)c3C)CC2)nc(-c2ccccc2)n1	-4.9%
CCOC(=O)C1CCCN(C(=O)C(C)Oc2ccc(Cl)cc2Cl)C1 (centres undefined)	1.0%
CC1C=CCC2C(=O)N(c3ccc(OC(=O)c4cccs4)cc3)C(=O)C12 (centres undefined)	-8.2%
CC(=O)Oc1ccc2c(c1)OC(c1ccccc1)CC21CC(C)(C)NC(=O)N1 (centres undefined)	-5.0%
O=C(Cc1ccccc1[N+](=O)[O-])Nc1ccc2c(c1)OCO2	-4.1%
Cc1ccc(CNC(=O)c2nnn(Cc3ccc(F)cc3)c2N)cc1	-2.8%
COc1ccc(N2CCOCC2)c(NC(=O)COc2cccc(C)c2)c1	?
COc1cccc(NC(=O)Cc2nnc(SCC(=O)NC3CCCCC3)n2C)c1	-19.9%
CC(C)[C@H](NC(=O)c1ccccc1F)C(=O)Nc1nc2c(s1)CCCC2	-4.2%
COc1cc(NC(=O)Cc2nn(C)c(=O)c3ccccc23)cc(OC)c1	1.0%
Cc1noc(C)c1COc1ccc(C(=O)OCC(=O)Nc2cccc(S(=O)(=O)N3CCOCC3)c2)cc1	-6.4%
Cc1oc(-c2ccc(Cl)cc2)nc1CN1CCC(C(=O)NCCCN2CCCC(C)C2)CC1 (centres undefined)	-4.6%
COc1ccccc1-n1c(SCC(=O)N(C)C2CCS(=O)(=O)C2)nc2ccccc2c1=O (centres undefined)	-5.2%
O=C1c2ccccc2S(=O)(=O)N1CC(O)COc1ccc(Br)cc1 (centres undefined)	-17.6%
CC(C)[C@H](NC(=O)Nc1cccc(Br)c1)C(=O)O	-2.1%
CCC(C)(C)NC(=O)C(c1cccn1C)N(C(=O)Cn1nnc2ccccc21)c1ccc(NC(C)=O)cc1 (centres undefined)	-3.0%
COc1ccc(OCCNS(=O)(=O)c2ccccc2)cc1	-2.2%
Clc1ccc(-c2cn3cc(Cc4ccccc4)sc3n2)cc1	-0.8%
CCc1nnc(NC(=O)Nc2ccc(OC)cc2)s1	-2.6%[0.501 µM]
O=C(CSc1nncs1)Nc1nnc(-c2ccccc2)o1	-1.6%
CC(=O)NC1=NN(C(C)=O)C(c2sccc2C)S1 (centres undefined)	0.0%
COc1ccccc1N1CCN(C(=O)c2cn(CC(C)C)c(=O)c3c2c2ccccc2n3C)CC1	-2.6%
CCOC(=O)N/N=C/c1cn(Cc2ccc(F)cc2)c2ccccc12	-9.0%
NC(=O)C1CCN(C(=O)c2ccc(CS(=O)(=O)c3c(Cl)cccc3Cl)o2)CC1	-7.8%
O=C(NCc1ccc(F)cc1)c1ccc(N2CCc3ccccc32)c([N+](=O)[O-])c1	-4.5%
CCCOP(=O)(c1ccc(N(C)C)cc1)C(Nc1ccccc1)c1ccc(C)cc1 (centres undefined)	-11.5%
(next part)
SMILES	GCN5L2 inh
CCC(C)c1ccccc1NC(=O)CN(C)CC(=O)Nc1ccccc1SC (centres undefined)	-3.4%
C/C(=N\Nc1c([N+](=O)[O-])c(C)nn1C)c1ccc(F)cc1F	0.2%
Cc1cccc(OCCCCCN2CCOCC2)c1C	-12.6%
CCOc1ccc(Cl)cc1S(=O)(=O)N1CCC(C(=O)NCc2cccnc2)CC1	-5.2%
COCCNC(=O)c1cc2nc(-c3ccccc3)cc(C)n2n1	-1.4%
COc1ccc(/C=C2\SC(=O)N(CCNC(=O)C3CC(=O)N(c4ccccc4)C3)C2=O)cc1 (centres undefined)	-8.7%
O=C(c1ccccc1)c1ccccc1N/C=C/c1nnnn1-c1ccccc1	-2.8%
CCOC(=O)c1noc2ncnc(N(CCC(=O)OC)c3ccccc3)c12	-5.7%
O=C(COc1cccc(C(F)(F)F)c1)NCC(c1cccs1)N1CCOCC1 (centres undefined)	2.8%
CCOc1ccc(NS(=O)(=O)c2ccc(C(=O)NCCCN3CCOCC3)cc2)cc1	-10.8%

Structures listed so far that have a CF3 group (4):
SMILES	GCN5L2 inh
Cc1cc2cc(CNC(=S)Nc3ccc(OC(F)(F)F)cc3)ccc2[nH]1	-6.5%
CCN(CC)CCCNC(=O)C(C)Sc1nc(-c2ccccc2)cc(C(F)(F)F)n1 (centres undefined)	1.6%
O=c1[nH]c(=O)n(C2CC(O)C(CO)O2)cc1C(F)(F)F (centres undefined)	5.0%
O=C(COc1cccc(C(F)(F)F)c1)NCC(c1cccs1)N1CCOCC1 (centres undefined)	2.8%

(more compounds)
SMILES	GCN5L2 inh
Clc1cccc(-c2cc3nc4c(c(N5CCOCC5)n3n2)CCCC4)c1	-1.4%
CC/C(=N\NC(=O)c1c(-c2ccccc2)noc1C)c1ccc(C)o1	-11.0%
CCOC(=O)C1CCN(S(=O)(=O)c2c(C(=O)N3CCCCC3)c(C)n(C)c2C)CC1	-5.9%
Cc1ccc(N(CC(=O)NCCc2ccccc2)C(=O)c2csnn2)cc1	-1.2%
Cc1ccc(CSc2nnc(-c3ccccn3)n2N)cc1	-1.9%
Cc1[nH]c2ccccc2c1C1(O)C(=O)Nc2ccc(Cl)cc21 (centres undefined)	-1.6%
CN(/C(=N/S(=O)(=O)c1cccs1)c1ccccc1)c1ccc(O)cc1	-9.4%
CCOC(=O)/C=c1\s/c(=C\c2c(OCC)ccc3ccccc23)c(=O)n1CC(=O)NCC1CCCO1 (centres undefined)	-7.7%
CC(=O)NC1=NN(C(C)=O)C2(CCCC2)S1	-9.1%
O=C(C1CCOCC1)N1CCC(CO)(CCc2ccccc2)CC1	0.3%
Cc1ccc(Nc2c(-c3ccc(N4CCOCC4)cc3)nc3ccc(C)cn23)cc1	2.5%
CCN(CCCNC(=O)c1nn(C)c2c1CS(=O)(=O)c1ccccc1-2)Cc1ccccc1	-1.7%
CCC(C)(C(=O)NC1CCCC1)N(C(=O)CNC(=O)c1ccccc1)c1c(C)n(C)n(-c2ccccc2)c1=O (centres undefined)	-3.4%
CCCCC(=O)Nc1cccc(NC(=S)NC(=O)C(C)C)c1	-8.4%
O=C(Cn1c(=O)nc(-c2ccccc2)c2cc(Cl)ccc21)NCCc1ccc(Cl)cc1	-7.1%
O=C(N/N=C1/CCc2ccccc21)C1CC1	1.7%

These rows are one share of the data, and most or all hits are left out here.
